From PubChem
rRNA inh HTS: inhibitors of bacterial rRNA selective over humanized ribosomes. E. coli WT GFP vs humanized-ribosome RFP mutants, fluorescence, 24 h; stronger effect = lower value; DMSO median 0, no signal -100. GFP signal change (wild-type ribosome), % (test concentration not listed). 350,000 tested, 1.6% active;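 active = significant combined selectivity score with lowered wild-type GFP, culture density cut under 30%, mutant RFP and density less affected; inactive = any of these conditions unmet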; note: one replicate is shown; some compounds called inactive have numbers as strong as hits
Vif TR-FRET: HIV-1 Vif–A3G interaction blockers – biochemical, TR-FRET, GST-Vif 1-94, biotin-A3G peptide, dose response retest, primary screen (AID 1117319); TR-FRET GST-Vif / biotin-A3G peptide binding; higher % means a stronger effect; test concentration not given here; strong numbers were not always called active; inhibition, %; hits with a dose series show IC50 in µM; 260,000 tested, 0.57% active;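 active = above the screen mean plus three standard deviations and confirmed in dose response; inconclusive = results disagree or hit not tested in dose response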;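 note: Vif residues 1-94 fused to GST binding biotinylated APOBEC3G peptide 110-148; 0% = full assay without inhibitor and 100% = GST in place of GST-Vif; retest series ran down from 100 µM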
Bfl-1 A1 inh: inhibitors of the anti-apoptotic protein A1, read as caspase activation. 330,000 tested, 0.066% active. AID 2462. MEF A1-2A-BIM cells, Caspase-Glo 3/7 luminescence, 3 h; percent of clofoctol response, vehicle zero. caspase activation, % (test concentration not listed);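 active = over half of replicate activation scores above 10%, or exactly half above 10 with the replicate mean above 10; inconclusive = replicate mean below 10 yet half the replicates above 10; inactive = over half of replicates below 10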;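 note: wells of about 30 µL received 50 nL stock; many hits fall short of the cut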
Beta apoptosis: beta cell apoptosis inhibition; INS-1E cytokine-induced death, ATP luminescence, 48 h; percent of positive-control rescue, neutral wells zero; protection from apoptosis, % (concentration not given with the values); 300,000 tested, 0.8% active; AID 435005;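 active = all replicates at 75% or more, or half of them and the mean; inconclusive = half reach 75% but not the mean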;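 note: 0% = cytokine-treated negative control wells and 100% = positive control rescue; higher means more ATP so stronger rescue from cytokine killing; wells of about 40 µL received 100 nL stock; the first replicate is given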
T cruzi inh: blocks replication of Trypanosoma cruzi. T. cruzi beta-gal in NIH3T3, luminescence, 90 h. 300,000 tested, 1.4% active. inhibition, % (no concentration beside the values);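 active = mean inhibition across valid replicates above about 55%, limit read from the data; inconclusive = mean below that limit but half or more replicates reach it; inactive = mean below it, under half of replicates reach it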;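 note: signal also drops with host cell toxicity which is not excluded here; 0% = plate median of DMSO wells and 100% = zero luminescence signal; higher percent means less beta-gal luminescence so fewer parasites; stock transfer was 50 nL into about 50 µL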
Calb FLC: affects C. albicans growth with fluconazole. C. albicans CaCi-2 (fluconazole-resistant clinical isolate) + fluconazole, Alamar Blue growth, 48 h. growth inhibition, % (concentration not given with the values). 300,000 tested, 0.57% active. AID 1979;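 active = most replicates above 75%; inconclusive = exactly half above 75%; inactive = most below 75%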;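 note: all wells also contain fluconazole at 8 µg/ml as a sub-toxic cotreatment; 0% = median of DMSO wells and 100% = median of geldanamycin control wells; wells of about 8 µL received 7.5 nL stock; the first replicate is given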
RanGTP-Impb inh: inhibitors of RanGTP-importin-beta interaction, primary screen, biochemical, FRET, CFP-Ran, YFP-importin-beta, homogeneous | cell-free CFP-Ran/YFP-importin-beta FRET ratio | inhibition, % (no concentration beside the values) | 300,000 tested, 1.1% active;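 active = most replicates above 15%; inconclusive = exactly half above 15%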;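 note: 0% = DMSO wells and 100% = Ran loaded with GDP instead of GTP; wells of about 40 µL received 100 nL stock; the first replicate is given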
AF4-AF9 inh: MLL-AF4/AF9 protein interaction inhibition. P42568. AlphaScreen, biotin-AF4 peptide binding to FLAG-AF9. inhibition, % at 10 µM. 350,000 tested, 0.47% active. AID 651704;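 active = every replicate reaching a set inhibition limit, whatever the replicate mean, cut at about 25% in these data; inconclusive = mean inhibition reaches that limit but some replicates miss it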;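 note: 0% = plate neutral control median and 100% = total signal loss; the record names both 10 and 1 µM as test concentration; the first replicate is given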
Target sequence (P42568 whole entry, looked up): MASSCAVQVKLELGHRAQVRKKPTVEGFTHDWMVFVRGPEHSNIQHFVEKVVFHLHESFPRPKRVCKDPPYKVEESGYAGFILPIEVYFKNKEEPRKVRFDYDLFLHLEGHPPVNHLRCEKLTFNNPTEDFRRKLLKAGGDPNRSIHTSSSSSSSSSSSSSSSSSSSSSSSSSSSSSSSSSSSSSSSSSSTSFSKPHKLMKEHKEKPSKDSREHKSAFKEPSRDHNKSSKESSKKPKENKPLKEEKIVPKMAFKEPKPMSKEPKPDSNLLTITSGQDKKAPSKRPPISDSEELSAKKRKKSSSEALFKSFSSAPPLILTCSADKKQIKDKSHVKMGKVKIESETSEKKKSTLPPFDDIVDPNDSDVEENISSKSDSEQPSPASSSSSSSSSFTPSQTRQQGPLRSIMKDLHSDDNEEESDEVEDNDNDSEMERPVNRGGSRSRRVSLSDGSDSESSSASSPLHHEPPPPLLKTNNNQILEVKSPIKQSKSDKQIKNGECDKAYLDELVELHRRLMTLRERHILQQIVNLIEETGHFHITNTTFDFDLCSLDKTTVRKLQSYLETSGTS
rRNA inh HTS OD600: further read-out of rRNA inh HTS, marked with its call; OD600 change, %; measured here: OD600 growth;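 optical density of the mix in the first replicate; 0 = DMSO median and -100 = no signal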
rRNA inh HTS RFP: also measured in rRNA inh HTS; calls as there; RFP signal change, %; measured here: RFP humanized mutant strains;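 first replicate; 0 = DMSO median and -100 = no signal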
Active calls of the source: *; ? = inconclusive; nt = no result given; & = joins results of further samples.

Start of the listing, in advance (4 entries):
SMILES	rRNA inh HTS	rRNA inh HTS OD600	rRNA inh HTS RFP	Vif TR-FRET	Bfl-1 A1 inh	Beta apoptosis	T cruzi inh	Calb FLC	RanGTP-Impb inh	AF4-AF9 inh
Nc1cc2c3c(cccc3c1)C(=O)N(CCN1CCCC1)C2=O	4	-10	-2.4	-2%	0.7	75*	78*	-4	-42	1.5
OCC[C@H]1C[C@H](O)[C@@H](O)[C@@]2(CCc3ccccc3O2)O1	4	13	2.6	nt	-0.2	0	nt	nt	nt	-2.6
N#CCSc1nc2c(c(C3CC=CCC3)c1C#N)CCC2 (stereo not given)	-26	-46	-15	4%	-0.8	2	28	?	-1.8	nt
Cc1cccc(C)c1NC(=O)CN1C(=O)NC(C)(CCc2ccccc2)C1=O (stereo not given)	0	3	-2.2	5%	1.2	0	-11	43	3.5	-1.8

All compounds of this part, from the first entry:
SMILES	rRNA inh HTS	rRNA inh HTS OD600	rRNA inh HTS RFP	Vif TR-FRET	Bfl-1 A1 inh	Beta apoptosis	T cruzi inh	Calb FLC	RanGTP-Impb inh	AF4-AF9 inh
Nc1cc2c3c(cccc3c1)C(=O)N(CCN1CCCC1)C2=O	4	-10	-2.4	-2%	0.7	75*	78*	-4	-42	1.5
OCC[C@H]1C[C@H](O)[C@@H](O)[C@@]2(CCc3ccccc3O2)O1	4	13	2.6	nt	-0.2	0	nt	nt	nt	-2.6
N#CCSc1nc2c(c(C3CC=CCC3)c1C#N)CCC2 (stereo not given)	-26	-46	-15	4%	-0.8	2	28	?	-1.8	nt
Cc1cccc(C)c1NC(=O)CN1C(=O)NC(C)(CCc2ccccc2)C1=O (stereo not given)	0	3	-2.2	5%	1.2	0	-11	43	3.5	-1.8
Cc1cc(NC(=O)NCc2ccccc2)c(=O)n(Cc2ccccc2F)c1	7	2	3.0	nt	0.8	0	36	-2	-0.8	1.9
Cc1ccc(-c2csc(NC(=O)Cc3ccc(F)cc3)n2)o1	8	11	16	13%	-0.6	5	2	0	-4.3	-0.9
CC(Sc1nnnn1C)C(=O)Nc1cc(S(=O)(=O)N2CCCCC2)ccc1Cl (stereo not given)	-3	1	2.5	8%	0.6	1	nt	nt	nt	-14
Cc1occc1-c1nnc(SCC(=O)NC2CCC(C)CC2)o1 (stereo not given)	-1	2	0.0	-5%	-0.1	-3	nt	nt	nt	1.2
COc1cnc(-c2cccc(C(F)(F)F)c2)[nH]c1=O	1	5	-0.4	-1%	0.3	nt	-6	-10	-1.9	0.0
CCOC(=O)N1CCN(C(=O)c2cn(C)c3ccc(S(=O)(=O)N4CCCC4)cc3c2=O)CC1	nt	nt	nt	0%&-5%	1.2	-6	-4	1	1.3	nt
COC(=O)c1c(CCl)noc1C(=O)NCC1CCCO1 (stereo not given)	11	3	4.9	?	0.6	1	nt	nt	nt	-1.0
CCC(=O)NS(=O)(=O)c1cccnc1Nc1ccccc1Cl	nt	nt	nt	4%	-0.2	1	-22	-1	-3.8	nt
COc1ccc(NC(=O)C2(N(CC(C)C)C(=O)Cn3nnnc3N)CCCCC2)cc1	nt	nt	nt	-5%	-0.3	1	-6	-3	1.1	nt
Cc1nn(-c2ccccc2)c(C)c1C(=O)NNC(=O)C(F)(F)F	6	6	0.6	6%	-0.3	nt	-10	-3	0.2	nt
CCC(=O)N1CCc2cc(S(=O)(=O)CCC(=O)NCc3ccco3)ccc21	14	22	3.8	15%	0.1	-5	-12	4	-0.4	-1.7
Cc1ccc(SCC(=O)OCC(=O)N(C)CC(=O)Nc2ccccc2Cl)cc1C	1	-3	-1.5	0%	0.0	-5	-11	11	1.6	-1.1
O=C(NC1CCCC1)C(=O)N(Cc1cccnc1)C(C(=O)NCC1CCCO1)c1ccco1 (stereo not given)	10	16	0.3	1%	-1.1	-5	0	-6	-5.0	-0.1
CCc1nn(C(CC)C(=O)NCCCN2CC(C)CC(C)C2)c(=O)c2cc3oc(C)cc3n12 (stereo not given)	5	6	-0.4	1%	0.9	-2	16	2	-2.4	1.9
CC(/C=C/c1ccccc1)=N\NC(=O)c1ccc2c(c1)OCCO2	nt	nt	nt	nt	-0.1	-7	-2	?	-2.5	nt
CCO[C@@H]1OC(C(=O)NCc2nc3ccccc3[nH]2)=C[C@H](C(C)(C)C)[C@H]1CCCO	-2	-1	-3.7	nt	0.8	18	9	0	5.0	3.6
CCC(=NCCc1c(C)[nH]c2ccc(C)cc12)C1=C(O)CC(c2ccccc2)CC1=O (stereo not given)	-3	-7	9.1	nt	0.5	15	12	13	2.1	4.7
Cc1nn(CC(=O)c2ccc3c(c2)OCCO3)c(=O)c(C#N)c1C	-8	-17	6.1	3%	0.8	0	nt	nt	nt	-1.1
CC(C)OCc1c(C(=O)OC/C(O)=C(\C#N)c2nc3ccccc3[nH]2)oc2ccccc12	11	7	0.1	6%	0.4	4	-3	2	4.8	-0.9
CC(=O)c1cccc(Nc2ccc(-c3ccccc3F)nn2)c1	6	9	1.9	nt	-3.5	-1	-4	13	-3.2	-0.5
Cc1cc(C)c(O)c(-c2cc(C(=O)NCc3ccccc3)[nH]n2)c1	nt	nt	nt	2%	0.1	3	24	-5	0.8	nt
Further records follow:
SMILES	rRNA inh HTS	rRNA inh HTS OD600	rRNA inh HTS RFP	Vif TR-FRET	Bfl-1 A1 inh	Beta apoptosis	T cruzi inh	Calb FLC	RanGTP-Impb inh	AF4-AF9 inh
CCOC(=O)CCCOC(=O)c1ccc(S(=O)(=O)N(C)C)cc1	nt	nt	nt	?	0.7	nt	-6	-3	5.2	nt
O=C1NC(c2ccc(-c3ccccc3[N+](=O)[O-])o2)C(C(=O)c2ccccc2)C(O)(C(F)(F)F)N1 (stereo not given)	nt	nt	nt	nt	0.6	-9	15	39	2.0	5.3
S=c1[nH]nc(-c2ccn[nH]2)n1-c1ccccc1Cl	16	6	0.3	?	0.3	-2	-7	-6	4.6	-0.7
COc1ccccc1C(=O)Nc1ccc(OCc2nnc3c4ccccc4c(C)nn23)cc1	nt	nt	nt	17%	-0.5	6	29	?	4.3	-1.5
COc1ccc(OCC(=O)N2N=C(C(F)F)CC2(O)C(F)F)cc1 (stereo not given)	nt	nt	nt	2%	1.0	-2	-12	-6	1.5	nt
COc1ccc(CNC(=O)C2CCN(S(=O)(=O)N3CC(C)CC(C)C3)CC2)cc1 (stereo not given)	0	7	-3.9	-4%	-0.5	5	-1	0	-0.2	11
COc1ccc(OC)c(S(=O)(=O)n2nnc3cc(Cl)ccc32)c1	nt	nt	nt	-4%	0.0	-5	2	-2	0.7	nt
Cc1cccc(C(=O)NCCNc2nc3cc(C)c(C)cc3cc2C)c1	nt	nt	nt	-3%	0.0	2	22	1	2.8	nt
COc1ccc(-n2c(SCC(=O)Nc3ccc(C(=O)O)cc3)nnc2-c2cccs2)cc1	nt	nt	nt	?	0.1	-3	-7	?	5.0	nt
Cc1c(Cl)cccc1-c1ccc(CNCc2ccccn2)o1	-51	-73	-16	nt	-0.6	-8	-5	15	0.4	11
CCC(C)(C(=O)NC1CCCC1)N(C(=O)c1ccccn1)c1ccc(C)cc1 (stereo not given)	nt	nt	nt	6%	0.3	-6	-2	35	-0.4	nt
CCOC(=O)NN1C(=O)c2ccccc2NC12CCCC2	19	7	-0.1	8%	0.5	-1	-5	1	0.3	-0.9
O=C(NS(=O)(=O)c1ccccc1Cl)c1ccc[nH]1	nt	nt	nt	9%	-0.1	-3	-5	-7	0.8	nt
O=c1[nH]c2ccccc2cc1CN(Cc1cccnc1)S(=O)(=O)c1ccc(Cl)cc1	-45*	-16*	-9.9*	nt	-0.2	-4	26	21	4.3	-1.8
Cc1ccc(C(CNS(=O)(=O)c2ccc(C)cc2)N2CCN(C)CC2)cc1 (stereo not given)	8	4	0.8	-7%	-0.4	-1	-8	-11	1.5	1.6
Cc1nc2c(ccc3nc(NC(=O)Cc4ccccc4)sc32)s1	-19	-16	-0.8	-5%	-2.3	11	7	32	0.0	0.7
Cc1cc(C(F)(F)F)nn1CC(=O)N1CCOCC1	0	-6	-2.7	-4%	1.3	-2	-12	2	4.1	-2.0
Cn1c(N2CCN(C(=O)NCc3ccccc3)CC2)nc2ccccc21	nt	nt	nt	5%	0.3	1	12	-15	-3.0	nt
CCOC(=O)C1(S(=O)(=O)c2ccc(Cl)cc2)CCN(Cc2ccc(Cl)cc2)CC1	nt	nt	nt	4%	0.5	11	38	-18	-2.8	nt
Cc1cc(C(=O)C(=O)O)c(C)n1-c1ccc(Cl)c(Cl)c1	-24	-22	-0.8	32%	0.5	-1	-1	-5	-3.3	0.2
C/C(=N\NC(=O)c1cccc(N/N=C(\C)c2cc(O)ccc2O)c1)c1cc(O)ccc1O	-3	10	12	?	-0.7	1	-49	103*	?	3.9
CCc1nc2ccc(C(=O)NC3CCC(C)CC3)cc2nc1CC (stereo not given)	-5	4	-2.2	-4%	0.9	-2	-5	-1	1.2	-1.1
CC1=C(C)CC(C(=O)Nc2nc(-c3ccc(F)cc3)c(C)s2)C(C(=O)O)C1 (stereo not given)	-12	-4	7.7	20%	-0.5	-8	-7	-6	-3.0	-6.2
Cc1ccc(-c2noc(COc3ccc4c(c3)OCO4)n2)cc1	nt	nt	nt	1%	-0.6	-5	-11	?	2.2	nt
COc1cccc(-c2ccc(NC(=O)C3CCCN(Cc4cnn(C)c4)C3)cc2)c1 (stereo not given)	-8	-2	2.5	nt	0.1	5	18	-9	-1.4	3.8
CN(C)C1=C(Cl)C(=O)N(c2ccc(Cl)c(Cl)c2)C1=O	0	0	1.7	?	-0.5	-7	-13	-9	1.9	-10

A stretch of the results above, for reference:
SMILES	rRNA inh HTS	rRNA inh HTS OD600	rRNA inh HTS RFP	Vif TR-FRET	Bfl-1 A1 inh	Beta apoptosis	T cruzi inh	Calb FLC	RanGTP-Impb inh	AF4-AF9 inh
CCOC(=O)CCCOC(=O)c1ccc(S(=O)(=O)N(C)C)cc1	nt	nt	nt	?	0.7	nt	-6	-3	5.2	nt
O=C1NC(c2ccc(-c3ccccc3[N+](=O)[O-])o2)C(C(=O)c2ccccc2)C(O)(C(F)(F)F)N1 (stereo not given)	nt	nt	nt	nt	0.6	-9	15	39	2.0	5.3

Only part of the results is shown, so the mix of outcomes need not match the whole.
